# Screening data as filed in PubChem.
# SmPrx2 inh: Schistosoma mansoni Prx2 inhibition; S. mansoni Prx2 activity coupled to TGR/GSH (TGR is thioredoxin glutathione reductase), NADPH fluorescence loss, qHTS; some inactives read as strong as hits; Potency, µM; 65,000 compounds, 0.07% hits; AID 448; active means full or partial inhibition curve with a strong effect at the top dose; inconclusive means weaker partial or single-point curve; inactive means no accepted curve; also: series up to 57 µM; many of its hits are not listed in these tables
#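 Purified S. mansoni TGR and Prx2 in pH 7.4 phosphate buffer with EDTA and Tween-20 were preincubated with compounds for 15 min. Further NADPH/GSH was added, then a 2.5 mM H2O2 aliquot initiated turnover, followed kinetically by NADPH fluorescence.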
# Anthrax LT inh: anthrax lethal toxin internalization inhibition; 70,000 compounds, 0.67% hits; Potency, µM (doses to about 40 µM), for the others: at the top dose activity change, negative = inhibition, actives largely listed as inhibitors; Cells, anthrax lethal toxin internalization, FRET ratio (460/530); active = well fitted falling ratio curve with the 530 nm signal flat; inconclusive = other ratio curves, or a change in one channel alone; inactive = flat curves in the ratio and both channels; the % refers to the ratio; also: % is scaled to controls: 0 for no effect and ±100 for the full control effect; nearly all actives have a fitted effect of over 50% in size; tested in ME-180 cells; beta-lactamase reporter
# Numbers without * were called inactive; ? = inconclusive; / = no result given; & = joins results of further samples; [ ] = remark or other dose. Potency is read from the fitted curve at half-maximal effect.
SMILES,SmPrx2 inh,Anthrax LT inh
CCOc1ccc(C2CC(c3cccc(Cl)c3)n3nc(N)nc3N2)cc1 (configuration not stated),>57,-6.4%
CC(C)Oc1ccc(C2c3c(oc4ccccc4c3=O)C(=O)N2CCCN2CCOCC2)cc1 (configuration not stated),/,24.9%
N#Cc1cccc(NC(=O)N2CCCC3(CCN(S(=O)(=O)c4ccccc4)CC3)C2)c1,>11.4,?
C/C=C/c1ccc(O)c(OC)c1,/,?
O=C(NCc1cccnc1)c1ccc(Cl)c(Cl)c1,>57,-9.9%
CCOC(=O)Cn1c(=O)oc2cc(S(=O)(=O)Nc3ccc(N(CC)CC)cc3C)ccc21,>57,?
CC(C)Cn1cnc2c(SCc3ccc(Cl)cc3Cl)nc(N)nc21,>57,-11.7%[8 µM]
O=C(Nc1ccc(Br)cc1)C1CCCN1S(=O)(=O)c1cccs1 (configuration not stated),>57,-21.1%
CCNC(=O)CSc1nc2cc(OC)c(OC)cc2c(=O)n1CCC1=CCCCC1,>57,3.8%
CCOC(=O)C1CCCN(Cc2nc(N)nc(Nc3ccc(OC)cc3)n2)C1 (configuration not stated),>57,-11.2%
CCCS(=O)(=O)N1CCCC(C(=O)NCCCOC(C)C)C1 (configuration not stated),>57,2.1%
O=C(c1coc2ccc(O)c(CN3CCOCC3)c12)C1CC1,>57,-2.6%
CCSc1nnc(NC(=O)c2cccs2)s1,/,-2.1%
O=C(COC(=O)C1CC(=O)N(C2CCCCC2)C1)c1ccc(F)cc1 (configuration not stated),>57,7.3%
N#Cc1c2c(c(=S)n(-c3ccccc3)c1N)CCCC2,/,?

# Sorted by number of heavy atoms (descending): part of the list above.
SMILES,SmPrx2 inh,Anthrax LT inh
CCNC(=O)CSc1nc2cc(OC)c(OC)cc2c(=O)n1CCC1=CCCCC1,>57,3.8%
CCOC(=O)C1CCCN(Cc2nc(N)nc(Nc3ccc(OC)cc3)n2)C1 (configuration not stated),>57,-11.2%
O=C(Nc1ccc(Br)cc1)C1CCCN1S(=O)(=O)c1cccs1 (configuration not stated),>57,-21.1%

# (cont.)
SMILES,SmPrx2 inh,Anthrax LT inh
O=c1c(/C=N/O)c(Nc2ccccc2)nc2ccccn12,/,-9.4%
CNC(=O)c1cc2cc(Cl)cc(OC)c2oc1=O,>57,-4.1%
CO[C@H]1COC(=O)[C@H](C)COC(=O)C/C=C\[C@@H](C)[C@H](OC)COC(=O)C/C=C\[C@@H]1C,/,-6.3%[8 µM]
C[C@@H](C(=O)NCc1ccc(S(C)(=O)=O)cc1)[C@H]1C[C@]1(C)[C@H](NC(=O)OCc1ccccc1)c1ccccc1,>57,?
COc1cc2[nH]c(=S)n(CCN3CCCCC3C)c(=O)c2cc1OC (configuration not stated),>57,/
O=C(CCN(CCO)Cc1ccccc1)Nc1ccc(Br)cc1,>57,-13.4%
Nc1ccccc1C(=O)O,/,1.5%
O=C(NCCCN1CCOCC1)c1cc2cc(Cl)cc(Cl)c2oc1=O,>57,9.2%
Nc1c(S(=O)(=O)c2cccs2)c2nc3ccccc3nc2n1Cc1cccs1,>57,?
NNC(=O)Cc1cccnc1,>57,0.5%[8 µM]
Cc1csc(Sc2nc3c(c(=O)[nH]c(=O)n3C)n2CCCc2ccccc2)n1,>57,-13.2%
CCOCC(=O)Nc1ccc(S(=O)(=O)NCCc2ccccc2)cc1,>57,-11.8%
COCCCNc1ncnc2c1cnn2-c1ccc(C)cc1C,>57,2.1%
COc1cc(C)c(Br)cc1S(=O)(=O)N1CCOCC1,>57,8.7%
O=C1CCC[C@H]1C(=O)Nc1ccc2ccccc2c1,>57,-7.4%[8 µM]
COC(=O)c1c(C)n(-c2ccccc2)c2ccc(O)cc12,>57,-10.2%
C=CCNC(=O)C(C)N1C(=O)c2ccccc2C1=O (configuration not stated),>57,3.9%
CCOc1cc(S(=O)(=O)NCCN2CCOCC2)c(C)cc1C,>57,7.1%
CNc1ncnc(Sc2nc(N)nc3nc[nH]c23)c1[N+](=O)[O-],?,-2.6%[8 µM]
Cc1onc(-c2ccccc2)c1C(=O)Nc1sc2c(c1C(N)=O)CCC2,>57,1.1%
O=C(CSc1nc2ccccc2c(=O)n1Cc1ccc(C(=O)NC2CC2)cc1)NCc1ccco1,>57,?
CCc1nnc(NC(=O)C(C)N2C(=O)C3C4C=CC(C4)C3C2=O)s1 (configuration not stated),>57,0.1%
COc1ccc(CCNC(=O)C2CCCN2C(=O)Nc2cccc(C(C)=O)c2)cc1OC (configuration not stated),>57,13.1%
CCCCCn1c(CN2CCN(CCO)CC2)nc2c1c(=O)n(C)c(=O)n2C,>57,-12.1%
CCCc1[nH][nH]c(=O)c1C(c1ccccc1)C(C#N)C#N (configuration not stated),>57,-3.6%
CCOC(=O)C1CN(c2cc3c(cc2F)c(=O)c(C(=O)O)cn3CC)OC1C(=O)OCC (configuration not stated),>57,-2.1%
Cc1cnc(NC(=O)CSc2ncc(-c3ccccc3)n2Cc2ccco2)s1,>57,?
Cc1noc(C)c1-c1cc(N2CCN(C)CC2)ncn1,>57,0.3%
CCCn1nc(NC(=O)c2ccncc2)c2cc3ccccc3nc21,>57,26.2%
Cc1c(NC(=O)c2ccc3c(c2)OCO3)c(=O)n(-c2ccccc2)n1C,/,-3.3%
COc1ccc(OCC2CN3C(CCC(C)C3c3ccc(Br)cc3)C(=O)O2)cc1 (configuration not stated),/,-16.2%&-1.3%[8 µM]
CCn1nnc(NC(=O)C(C)Oc2ccc(Cl)cc2Cl)n1 (configuration not stated),>57,6.2%
COc1ccc(N2CCN(S(=O)(=O)c3ccc(Cl)c(C(F)(F)F)c3)CC2)cc1,>57,8.9%
Clc1ccc(C2Nc3ccccc3-n3cccc32)cc1 (configuration not stated),>57,-9.7%
CCOc1ccc(OCC)c(NC(=O)C2CCN(S(=O)(=O)c3c(C)noc3C)CC2)c1,>57,4.1%
Cc1cc2cc3c(cc2nc1SCC(=O)O)OCCO3,>57,1.4%
CCc1c(C)c2c(C)nn(-c3ccccc3)c2[nH]c1=O,/,0.8%
CC12C=C(/C=C/c3ccc(F)cc3)C(C)(C1)C(c1ccc(F)cc1)CC2=O (configuration not stated),/,-19.4%[8 µM]
CCOC(=O)NC1(Nc2ccc(Cl)cn2)Oc2ccccc2O1,>57,-8.7%
O=C(Oc1cccc2c(OC(=O)N3CCOCC3)cccc12)N1CCOCC1,>57,2.0%
COc1cc2c(=O)n(Cc3ccccc3)c(=O)n(CC(=O)C(C)(C)C)c2cc1OC,>57,-1.7%
Cn1cc(-c2nc3cnc(Oc4cccc(Cl)c4)nc3n(CCC#N)c2=O)c2ccccc21,>57,?
COc1ccc(CCNC(=O)C2CCN(S(=O)(=O)N3CCCCC3)CC2)cc1OC,>57,3.2%
O=c1c2ccccc2nc(N2CCN(c3ccccc3)CC2)n1Cc1ccccc1,>57,?
CC(C)CCn1cnc2c(c1=O)c1nc3ccccc3nc1n2Cc1ccc2c(c1)OCO2,>57,0.6%
CCNC(=O)[C@H](C)/C=C/C(NC(=O)OCc1ccccc1)c1ccc(C(=O)OC)cc1 (some centres not stated),/,-14.0%
Cc1c(S(=O)(=O)N2CCN(C(=O)c3ccco3)CC2)c(=O)n(C)c(=O)n1C,>57,-11.1%
CC(C)[C@@H](C(=O)O)N1C(=O)c2ccccc2C1=O,>57,0.8%[8 µM]
O=C(O)c1ccc(NS(=O)(=O)c2cccc3cccnc23)cc1,>57,2.6%
O=C(NC1(C(F)(F)F)NC(=O)N(CC2CCCCC2)C1=O)c1ccco1 (configuration not stated),>57,3.0%
CCOC(=O)C1=C(C)NC2=C(C(=O)C(C(=O)OCC)C(c3ccco3)C2)C1c1ccccn1 (configuration not stated),/,?
O=C(COC(=O)CCCN1C(=O)c2ccccc2C1=O)Nc1ncc(Cl)cc1Cl,>57,4.9%
CN1C(=O)CC(N2CCN(c3ccccn3)CC2)C1=O (configuration not stated),/,10.0%
Cn1ccnc1SCC(=O)c1ccc(Br)cc1,>57,-6.1%
Cc1nc(CNS(=O)(=O)c2ccc3c(c2)OCCO3)cs1,>57,1.1%
COc1ccc(Cl)cc1NC(=O)Cn1c(=O)n2nc(C)nc2c2ccccc21,>57,-4.0%
Cn1c(=O)oc2cc(S(=O)(=O)NCCN3CCN(c4ccccc4F)CC3)ccc21,>57,-5.0%
O=P(O)(OCc1ccccc1)OCc1ccccc1,/,7.0%
Cc1cc(NC(=O)CSc2c3c(nc4ccccc24)CCC3)no1,>57,?
NS(=O)(=O)c1ccc(CCNC(=O)COC(=O)C2CCCN2C(=O)c2cccs2)cc1 (configuration not stated),>57,?

# An excerpt of these results, as tab-separated lines.
structure	SmPrx2 inh	Anthrax LT inh
CC(C)Oc1ccc(C2c3c(oc4ccccc4c3=O)C(=O)N2CCCN2CCOCC2)cc1 (configuration not stated)	/	24.9%
N#Cc1cccc(NC(=O)N2CCCC3(CCN(S(=O)(=O)c4ccccc4)CC3)C2)c1	>11.4	?
C/C=C/c1ccc(O)c(OC)c1	/	?
O=C(NCc1cccnc1)c1ccc(Cl)c(Cl)c1	>57	-9.9%
CCOC(=O)Cn1c(=O)oc2cc(S(=O)(=O)Nc3ccc(N(CC)CC)cc3C)ccc21	>57	?

# More results follow.
SMILES,SmPrx2 inh,Anthrax LT inh
c1ccc2c(c1)OCC(c1nnc3sc(-c4ccc5c(c4)OCO5)nn13)O2 (configuration not stated),>57,-3.0%
COc1ccc(-c2cc(C(F)F)n3ncc(C(=O)N4CCN5CCCC5C4)c3n2)cc1 (configuration not stated),>57,?
c1ccc(-c2cccc(N3CCC4(CCNCC4)CC3)c2)cc1,>57,10µM*
Cc1cccn2c(=O)c3cc(C(=O)NCc4ccco4)c(=N)n(CCc4ccccc4)c3nc12,>57,20.5%
Cc1ccc(CC(=O)Nc2cccc(C)n2)cc1,/,?
CCC(C)N1CC(C(=O)NC2CCCCC2)CC1=O (configuration not stated),>57,-2.2%
CCOC(=O)C1CCN(C(c2cccc(OC)c2)c2sc3nc(C)nn3c2O)CC1 (configuration not stated),>57,-22.5%
CCOc1ccccc1N1Cc2cc(C)c(C)cc2C1,>57,-13.1%
NCCC[C@@H](CC(=O)N[C@@H]1CCNC[C@H]1C(=O)N[C@H](CC(=O)N[C@@H](CCC(=O)O)CC(=O)O)Cc1c[nH]c2ccccc12)NC(=O)C[C@H](CO)NC(=O)[C@@H]1CCCC[C@H]1N,>57,-15.8%
Cc1ccc(S(=O)(=O)N2Cc3ccccc3CC2C(=O)Nc2cc(C)on2)cc1 (configuration not stated),>57,-0.1%
Cc1cc(=O)oc(C)c1C(=O)N1CCN(C(c2ccccc2)c2ccccc2)CC1,>57,1.8%
CCOC(=O)c1sc(=S)n(C)c1N,>57,-6.2%
COc1ccc(C(=O)O)cc1Nc1cc(C)nc2ncnn12,>57,-1.4%
COc1ccccc1N1CCN(Cc2nc(N)nc(Nc3ccc(C)cc3)n2)CC1,>57,?
Cc1cc(C)cc(-n2nnc(C(=O)NCc3ccco3)c2N)c1,>57,-16.7%
O=S(=O)(Nc1cccnc1)c1cc(Cl)ccc1Cl,/,7.3%
N#Cc1cc2c(=O)n3ccccc3nc2n(Cc2cccnc2)c1=O,>57,?
CS(=O)(=O)N1CCC(C(=O)N2CCC(Cc3ccccc3)CC2)CC1,>57,3.5%
COc1cc(Cl)c(S(=O)(=O)N2CC(C)OC(C)C2)cc1Cl (configuration not stated),>57,10.2%
CCCCC1(CC)C(=O)NC(=O)NC1=Nc1ccc(OC)cc1 (configuration not stated),>57,11.0%
CC(C)[C@@H](CC(=O)N[C@@H]1CCNC[C@H]1C(=O)N[C@H](CC(=O)N[C@@H](CCC(=O)O)CC(=O)O)Cc1ccccc1)NC(=O)C[C@H](CO)NC(=O)[C@@H]1CNCC[C@H]1N,>57,0.5%
COc1ccc(C(CC(=O)O)NC(=O)COc2ccccc2)cc1OC (configuration not stated),>57,-1.5%
COc1ccc(-n2c(=O)cc(N3CCCCCC3)[nH]c2=O)cc1,>57,6.0%
O=C(Cc1ccc(-n2cccc2)cc1)N1CCN(c2ccccc2F)CC1,>57,-11.2%
CCCn1c(SCC(=O)Nc2cccc(C(=O)OC)c2)nnc1-c1cccnc1,>57,8.6%
CCOC(=O)c1c(-c2cccs2)csc1NC(=O)COC(=O)c1c(C)noc1C,>57,?
Cc1cc(Nc2ccc(C(=O)O)cc2)n2nc(C)nc2n1,>57,-3.2%
CC1CCC2C(C1)c1sc(=O)[nH]c1SC2(C)C (configuration not stated),>57,-16.5%
CCOC(=O)c1[nH]c(C)c(/C(O)=C2\C(=O)C(=O)N(CCCN(CC)CC)C2c2cccnc2)c1C (configuration not stated),>57,5.4%
O=C(c1ccc(Cl)c(Cl)c1)N(Cc1ccco1)c1ccc(O)cc1,>57,?
Cc1c(C)c2cc3c4c(oc3c(C)c2oc1=O)CCCC4,>57,1.6%
COc1ccc2c(c1)c(CC(=O)O)c(C)n2Cc1ccc(F)cc1,>57,-1.7%
O=C(/C=N/O)NCc1ccncc1,>57,?
CCOc1ccc(S(=O)(=O)N(CC(=O)N2CCc3ccccc32)Cc2ccco2)cc1,>57,?
CCCOc1ccc(C(=O)N2CCN(c3ccc(N)cc3Cl)CC2)cc1,>57,-3.2%
CCCNC(=O)N1CCN(S(=O)(=O)c2ccc(C)c(C)c2)CC1,>57,?
Cc1ccc(S(=O)(=O)Nc2nc3ccccc3nc2NCc2ccco2)cc1C,>57,7.0%
O=C(CCCCn1c(=O)[nH]c2ccccc2c1=O)NCc1ccc2c(c1)OCO2,>57,-4.0%
OCc1nc2ccccc2n1C/C=C/c1ccccc1,>57,-1.2%

# Only part of the results is shown (hit frequency here may not be typical).
